# GLA inh pH 4.5: inhibitors of human alpha-galactosidase A at pH 4.5 | P06280 | purified enzyme, 4-MU-alpha-Gal fluorescence, pH 4.5 | activity change, negative = inhibition, % at 105 µM | 230,000 tested, under 10 active | AID 1467; inconclusive = small, poorly fitted or top-dose-only inhibition, or a rising curve; inactive = flat fitted curve, though single readings scatter; no compound was filed as active;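 also: 0% = full activity with enzyme and -100% = basal without enzyme; dose as in the result columns while the protocol names 77 µM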
# Target sequence (P06280 whole entry, looked up): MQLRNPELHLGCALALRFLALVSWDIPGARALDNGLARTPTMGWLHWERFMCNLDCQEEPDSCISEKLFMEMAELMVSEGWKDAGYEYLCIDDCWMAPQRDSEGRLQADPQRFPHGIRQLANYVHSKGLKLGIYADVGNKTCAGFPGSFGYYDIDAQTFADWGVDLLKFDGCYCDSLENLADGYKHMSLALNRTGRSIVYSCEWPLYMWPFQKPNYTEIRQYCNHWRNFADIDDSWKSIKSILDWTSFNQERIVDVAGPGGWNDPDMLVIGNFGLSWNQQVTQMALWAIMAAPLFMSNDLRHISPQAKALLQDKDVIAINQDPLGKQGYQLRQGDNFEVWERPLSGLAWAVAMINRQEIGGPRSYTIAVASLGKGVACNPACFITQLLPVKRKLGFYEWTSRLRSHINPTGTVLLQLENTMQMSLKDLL
# miR-21 FLuc: raises the signal of a miR-21 reporter; AID 2288; 340,000 tested, under 10 active; HeLa miR-21 FLuc reporter, luciferase, 48 h; Potency, µM (doses to about 38.3 µM), for inactives: at the top dose reporter change, positive = more light; active = well fitted rising curve with a large enough effect; inconclusive = small, poorly fitted or top-dose-only effect; inactive = no such curve, though single readings can be large or run the other way;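 also: % of control where 0% means no effect; miR-21 action dims this reporter so a rising signal means less miR-21 action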
#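 Compounds were titrated across several concentrations (up to approximately 40 uM) and incubated 48 hours with HeLa miR-21-FLuc reporter cells (miR-21 target sequence downstream of FLuc, endogenous miR-21). Readout was firefly luciferase luminescence after lytic detection reagent.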
# Rango-impB inh: prevents formation of the Rango-importin beta complex. Q14974. Rango CFP/YFP FRET sensor + importin beta, 45 min. Potency, µM (doses to about 92.2 µM), inactives show top-dose inhibition of complex formation. 340,000 compounds, 0.031% hits; active = rising FRET ratio curve, often small or poorly fitted; inconclusive = mostly compound fluorescence or quenching in the first reads; inactive = flat curves in all reads;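 also: potency is read from the fitted curve at half-maximal effect; 0% = DMSO wells and 100% = buffer wells lacking importin beta; nearly all actives have a fitted effect of over 15% in size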
#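 FRET biosensor (snurportin 1 IBB flanked by EYFP and cerulean), 50 nM, with compound 5 min, then 0.125 microM importin beta in PBS, 1 mM DTT, 0.02% Tween-20, 0.1% BSA. CFP/YFP ratio read after 45 min at room temperature; pre-read flags interference.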
# Rango release inh: prevents RanGTP from dissociating the Rango-importin beta complex. AID 540253. Biochemical FRET Rango-importin beta, RanGTP-induced dissociation. 340,000 compounds, 0.071% hits. O95149+P62826. Potency, µM (top dose mostly 46.1 µM), without a hit: top-dose activity change, negative = inhibition; active means falling FRET ratio curve, often poorly fitted, with flat reads before Ran was added; inconclusive means other falling curves, or compound fluorescence or quenching; inactive means flat or rising ratio curve;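 also: potency is read from the fitted curve at half-maximal effect; % of control where 0% means no effect; nearly all actives have a fitted effect of over 45% in size; -100% = wells without RanGTP and RCC1; the record marks most hits as doubtful in a second field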
#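 Compounds sat 5 min at room temperature with 0.1 uM Rango biosensor plus 0.25 uM importin beta, then FRET pre-read. RanGTP-RCC1 (0.6 uM Ran, 2mM GTP, 0.2 uM RCC1) added for 45 min, and the CFP/YFP post-read measured blocked complex dissociation.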
# * hit, by the source's call; ? = inconclusive; · = no result given; & = joins results of further samples; [ ] = remark or other dose. These rows are one share of the data, so the mix of outcomes need not match the whole.
SMILES,GLA inh pH 4.5,miR-21 FLuc,Rango-impB inh,Rango release inh
COn1c(-c2ccc(Cl)cc2)nc2ccc(Cl)cc21,-2.2,-45.1%,-0.8%,-0.5%
CC(C)(C)c1ccc(C(=O)Nc2ccc(S(=O)(=O)Nc3cnc4ccccc4n3)cc2)cc1,·,-17.0%,0.2%,-1.6%
c1ccc(-c2c(-c3ccccc3)n(Cc3ccco3)c3ncnc(NCCCn4ccnc4)c23)cc1,-16.7,?,5.0%,1.2%
COC(=O)c1cc2occc2n1Cc1c(F)cccc1Cl,-0.4,-12.8%,·,·
COCCCNC(=O)CSc1nc2ccccc2c(=O)n1CCCC(=O)NCC1CCCO1 (stereo unspecified),3.9,-1.5%,-0.7%,20.1%
Fc1ccc(NC(=S)NCc2ccccn2)cc1,8.7,-13.9%,1.5%,-14.5%
CC(C)(C)C(=O)CSc1ncnc2c1cnn2Cc1ccccc1,·,-0.6%,-1.6%,-1.1%
Cc1cc(C)cc(OCC(=O)N(C)CC(=O)Nc2ccc(N3CCOCC3)cc2)c1,·,·,4.1%,34.7%
O=C(c1ccc[nH]1)N1O[C@@H]2C=C[C@H]1C2,·,·,-1.5%,-14.4%
O=C(CCn1nnc2ccccc21)Nc1nnc(Cc2ccccc2)s1,-2.4,-2.6%,-3.3%,-5.6%
O=C(c1ccc(C(F)(F)F)cc1)C1CCCN(C(=O)CN2CCCC2=O)C1 (stereo unspecified),-4.0,4.0%,-4.8%,6.7%
Cc1ccc(N=C2C(=S)N(c3ccc(C)cc3)C(=N)N2/N=C/c2ccc(Cl)cc2)cc1,-5.8,-41.4%,-1.6%,-15.4%
COc1cccc(C(=O)NNC(=O)c2sccc2-n2cccc2)c1,-2.2,-2.0%,0.4%,3.9%
O=C1CCCN1C(=O)CSc1ccc2ccccc2n1,·,·,2.4%,1.0%
CN(CCCC1CCCC1)C(=O)c1cc(COc2c(F)cccc2F)on1,·,0.4%,-2.1%,16.6%
O=C(COC(=O)c1cc(S(=O)(=O)N2CCOCC2)ccc1F)Nc1ccc2c(c1)OCO2,·,·,1.3%,12.2%
O=C(Cc1ccc([N+](=O)[O-])cc1)NCc1ccccc1Cl,-2.8,-7.1%,-1.0%,17.2%
CCc1nnc(N/N=C/c2c(F)cccc2Cl)n1N,·,-8.0%,4.7%,0.7%
CCOC(=O)C1(CC)NC(c2ccco2)C2C(=O)N(C)C(=O)C21 (stereo unspecified),2.0,0.8%,0.0%,6.3%
Cc1ccnc(N2C(=O)c3ccccc3C2O)c1 (stereo unspecified),2.2,3.2%,-0.2%,3.8%
Cc1c(CN(C)C(=O)c2nn(C)cc2[N+](=O)[O-])cnn1C,-4.7,-1.8%,1.9%,-4.2%
COc1ccc(CCN2CNc3c(c(=O)n(C)c(=O)n3C)C2)cc1OC,·,3.3%,-2.6%,14.9%
O=C(/C=C/c1ccccc1)NCCc1nc2ccccc2[nH]1,-23.4,-0.6%,-0.4%,3.7%
Cn1c(N)c(C(=O)COC(=O)CNC(=O)c2ccccc2Cl)c(=O)n(C)c1=O,·,·,?,-10.2%
CCN(CC)S(=O)(=O)c1ccc(N2CCCC2)c(C(=O)OCC(=O)/C(C#N)=C(\C)N)c1,-7.1,-4.5%,1.5%,8.3%

# Random excerpt: two records from the list.
SMILES,GLA inh pH 4.5,miR-21 FLuc,Rango-impB inh,Rango release inh
CCc1nnc(N/N=C/c2c(F)cccc2Cl)n1N,·,-8.0%,4.7%,0.7%
Cc1c(CN(C)C(=O)c2nn(C)cc2[N+](=O)[O-])cnn1C,-4.7,-1.8%,1.9%,-4.2%

# The main list resumes with the five entries that preceded the break.
SMILES,GLA inh pH 4.5,miR-21 FLuc,Rango-impB inh,Rango release inh
Cc1c(CN(C)C(=O)c2nn(C)cc2[N+](=O)[O-])cnn1C,-4.7,-1.8%,1.9%,-4.2%
COc1ccc(CCN2CNc3c(c(=O)n(C)c(=O)n3C)C2)cc1OC,·,3.3%,-2.6%,14.9%
O=C(/C=C/c1ccccc1)NCCc1nc2ccccc2[nH]1,-23.4,-0.6%,-0.4%,3.7%
Cn1c(N)c(C(=O)COC(=O)CNC(=O)c2ccccc2Cl)c(=O)n(C)c1=O,·,·,?,-10.2%
CCN(CC)S(=O)(=O)c1ccc(N2CCCC2)c(C(=O)OCC(=O)/C(C#N)=C(\C)N)c1,-7.1,-4.5%,1.5%,8.3%
Cc1occc1C(=O)NNC(=O)c1ccccc1[N+](=O)[O-],·,?,0.0%,7.4%
CCCCn1c(N)c(N(CC)C(=O)c2cc3c(s2)CCCCC3)c(=O)[nH]c1=O,·,·,0.2%,-8.0%
O=C(C[n+]1cccc(Br)c1)c1cccs1,·,3.4%,0.3%,-15.9%
Cc1cc(C)c2c(-n3cccc3)nn(C)c2n1,-12.7,-11.4%,3.5%,0.7%
COC(=O)c1c(-c2c(Cl)cccc2Cl)noc1C(=O)NN,0.2,3.5%,0.7%,-7.3%
COc1cc(O)c(C(CC(=O)N2CCCCC2)c2ccc3c(c2)OCO3)c(OC)c1 (stereo unspecified),-6.3,4.2%,-1.0%,6.2%
CCN(CC(=O)NCc1cccs1)S(=O)(=O)c1ccc(C(C)C)cc1,0.6,-2.1%,-0.7%,22.5%
COc1ccc(-c2nnn(-c3cc(Cl)cc(Cl)c3)c2N)cc1,-0.2,-0.2%,4.4%,14.5%
O=c1c(O)c(-c2cc(O)c(O)c(O)c2)oc2cc(O)cc(O)c12,-8.0&0.4&3.5,·,-0.3%,-16.9%
CCOc1ccc(Nc2cc(=O)oc3ccccc23)cc1,15.4,-13.6%,-1.6%,4.2%
Cc1cc(C)cc(NC(=O)CCc2c(C)nn(-c3ccc(N4CCCCC4)nn3)c2C)c1,·,-42.3%,0.3%,20.5%
Nc1cc(N)nc(SCC(=O)N2CCN(S(=O)(=O)c3ccccc3)CC2)n1,-5.7,-1.9%,0.8%,-9.1%
CCOc1ccc(N(CC)C(=O)CCS(=O)(=O)c2cccc3nonc23)cc1,·,-4.8%,-0.3%,5.8%
CCc1cccc(C)c1NC(=O)CC(C)(C)CC(=O)O,4.4,1.1%,-0.4%,0.8%
CCOC(=O)C1CCCN(C(=O)c2cc3c(C)nc4ccccc4c3o2)C1 (stereo unspecified),3.1,13.1%,-0.8%,11.7%
COc1ccc(NC(=O)COC(=O)CNC(=O)c2cc(OC)c(OC)c(OC)c2)cc1,0.0,9.4%,4.9%,-2.1%
CC(C(=O)Nc1ccccc1)C(=O)Nc1ccccc1,·,-1.7%,-2.0%,-5.9%
CNC(=O)c1ccc(NC(=O)CC23CC4CC(CC(C4)C2)C3)cc1,·,-12.1%,1.5%,-0.4%
COc1ccc(CCC(=O)Nc2cc(Cl)ccc2OC)cc1,4.4,9.7%,1.6%,3.3%
CCC(C(=O)NC1CCCCC1)N(CC1CCCO1)C(=O)CNS(=O)(=O)c1ccc(OC)cc1 (stereo unspecified),-23.9,-4.0%,2.1%,4.2%
CN(CC(=O)Nc1ccccc1C(F)(F)F)C(=O)CCc1nc2sc3c(c2c(=O)[nH]1)CCCC3,·,-3.0%,1.1%,-20.3%
CNC(=O)NC(=O)COC(=O)CCCOc1ccc(OC)cc1,1.0,-5.7%,5.0%,-13.5%
COC(=O)c1sccc1NC(=S)N1CC(C)CC(C)C1 (stereo unspecified),1.5,-6.1%,-1.3%,10.0%
CCOC(=O)c1ccc(N=c2sc(C(=O)OC)cc(=O)n2Cc2ccc3c(c2)OCO3)cc1,-21.9,-5.6%,-4.7%,-1.3%
CCOc1ccc(NC(=O)COC(=O)c2cc([N+](=O)[O-])ccc2N2CCOCC2)cc1,·,·,-0.3%,-7.1%

# Later entries:
SMILES,GLA inh pH 4.5,miR-21 FLuc,Rango-impB inh,Rango release inh
S=C(Nc1ccccc1)c1nc2ccccc2s1,1.4,-63.2%,0.7%,-9.8%
Cc1cccc(NC(=O)Cn2cccc2)c1,2.3,-3.2%,?,1.7%
Cc1cc(C)c2c(=O)[nH]c(SCC(=O)N3CCCCC3)nc2n1,2.1,0.3%,-0.6%,7.0%
Cc1ccc(CNS(=O)(=O)c2cn(C)cn2)cc1,5.2,-3.1%,2.6%,0.9%
Cc1nc(C)c(C(=O)Nc2cccc(F)c2)s1,·,-24.1%,-3.3%,-5.6%
O=C(CNC1CCCCCC1)Nc1ccccc1N1CCCCC1,-6.7,0.9%,-0.6%,-7.1%
C#CCNC(=O)C1=C[C@H](c2csc3ccccc23)C[C@H](OCCCCO)O1,3.0,-3.0%,-1.7%,0.2%
CSCCC(NC(=O)c1ccc(Cl)cc1Cl)C(=O)OC(C)C(=O)NCc1ccco1 (stereo unspecified),·,·,-0.4%,-0.6%
CCOc1ccc(S(=O)(=O)Nc2nc3ccccc3nc2-n2ccc(=NC(=O)c3cccs3)cc2)cc1,-7.1,-6.7%,?,-23.0%
Cc1ccc([N+](=O)[O-])c2c1C(N1CC(C)OC(C)C1)C(C)(C)O2 (stereo unspecified),-5.1,1.3%,0.4%,3.6%
O=C(NC1C(=O)NNC1c1ccccc1)c1ccccc1 (stereo unspecified),-7.8,-36.2%,-1.1%,22.5%
COCCCn1c(SCC(=O)N(C)C)nnc1-c1ccccc1,6.6,-0.6%,-2.9%,9.5%
Cc1noc(C)c1C(=O)OC(C)C(=O)N(C)c1ccccc1 (stereo unspecified),·,·,-1.7%,0.7%
COc1ccc(C(=O)COC(=O)C(CCSC)NS(=O)(=O)c2ccc(Cl)cc2)cc1 (stereo unspecified),-4.6,-0.1%,2.0%,5.2%
O=C(Nc1ccccc1N1CCOCC1)c1cccc(F)c1,8.1,-0.7%,-0.8%,-5.3%
CC(=O)Oc1ccc(/C=N/NC(=O)CCSc2ccccc2)cc1,-7.7[21.1 µM],-2.9%,2.4%,10.3%
CCN1C(=O)/C(=C/c2cccs2)N(C)C1=S,-1.1,-4.6%,-0.6%,3.5%
CC(C)N(C(=O)NC(=O)Nc1ccc(S(=O)(=O)N2CCCC2)cc1)S(C)(=O)=O,-2.4,-2.7%,4.1%,10.0%
Cc1cc(C)n(-c2nc3ccccc3nc2N2CCN(C(=O)c3ccccc3)CC2)n1,-9.0,-1.5%,-0.7%,-16.8%
COc1ccc(C(=O)Nc2ccncc2)cc1OC,5.2,-19.0%,1.5%,-6.2%
O=C(COc1ccc(-c2nnco2)cc1)Nc1c(F)cccc1F,·,·,-0.9%,0.5%
O=C(CN1CCN(Cc2ccccc2)CC1)NCc1ccc(Cl)cc1,·,18.1%,-2.3%,-2.7%
Cc1ccnc(N/N=C/c2ccccc2)n1,-7.6,-27.6%,-2.6%,23.0%
COc1cc(-c2noc(C3CCCN(C(=O)c4c(F)cccc4F)C3)n2)cc(OC)c1OC (stereo unspecified),·,4.3%,-0.4%,13.7%
CNS(=O)(=O)c1cccc(C(=O)OC2CCCCC2=O)c1 (stereo unspecified),3.1,-0.2%,?,-3.3%

# (more compounds)
SMILES,GLA inh pH 4.5,miR-21 FLuc,Rango-impB inh,Rango release inh
Cc1ccn2c(CNC(C)c3cn(C)nc3C)c(C(=O)N3CCCCCC3)nc2c1 (stereo unspecified),·,-4.0%,0.3%,-12.1%
COC(=O)c1ccc(NC(=O)CN(C)S(=O)(=O)c2ccc(OC)c(C)c2)cc1,-27.7,5.6%,-1.5%,1.4%
O=[N+]([O-])c1ccc2nnn(O)c2c1,-0.4,-3.9%,-4.3%,-7.8%
CCn1c(=NC(=O)CN2C(=O)CCC2=O)sc2c(OC)ccc(OC)c21,-0.3,-3.4%,0.9%,-1.0%
CCOCCCNCc1ccc(OCc2ccccc2C)c(OC)c1,1.8,-23.4%,3.1%,?
O=S(CC1CC1(Cl)Cl)CC1CC1(Cl)Cl (stereo unspecified),6.4,-4.4%,10.0%,15.8%
CC(=O)c1ccc(NC(=O)Nc2ccc([N+](=O)[O-])cc2)cc1,0.0,-34.1%,-0.4%,-9.8%
Cn1c(CNc2ccc(Cl)cc2)nnc1SCC#N,2.7,4.1%,10.8%,-6.2%
C=CCOc1ccc(/C=N/NC(=O)c2c(C)nc3ccc(Cl)cn23)cc1,·,1.9%,3.3%,-10.6%
COc1ccc2cnn(Cc3ccccc3)c(=O)c2c1OC,4.3,-11.1%,-4.4%,-4.5%
CN(C)C(CNC(=O)c1ccc(C(=O)c2ccccc2)cc1)c1ccccc1 (stereo unspecified),·,-0.9%,-1.6%,-1.3%
